Bst PK mod – Pyruvate Kinase | partly purified Bacillus stearothermophilus pyruvate kinase, luminescence ATP production; ribose 5-phosphate activator present at AC10 | Potency, µM | 1.2% of 51,000 active | AID 361, 2006; in the data active means potency below about 11 µM; inconclusive means mostly about 12 µM to 25 µM; inactive means weaker than that;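 the screen sought inhibitors and activators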;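 further: potency means the concentration at half of the fitted maximal effect; scaled between full activation by ribose 5 phosphate and full inhibition by luteolin; about four in five hits inhibit and the cells do not say which; series up to 57 µM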
YjeE inh – qHTS Assay for Inhibitors of YjeE; tRNA threonylcarbamoyladenosine biosynthesis protein TsaE (Escherichia coli (strain …; purified YjeE, fluorescence polarisation of a bound ADP probe; Potency, µM; 0.05% of 71,000 active; AID 605, 2007; active = well fitted falling curve; inconclusive = weaker or top-dose-only fall, or a rising curve; inactive = flat or poorly fitted curve;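 further: top concentration of the series not given in the record; excess ADP was the control for the full effect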
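Purified YjeE (10 uM) with BODIPY Texas Red-labeled ADP probe (2 uM); compounds pin-transferred, 15 min at room temperature. Binding inhibition read as decreased fluorescence polarization; ADP titration as control.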
* = called active by the depositor; i = inactive; ? = inconclusive; . = not tested or not shown.

Bst PK mod,YjeE inh,SMILES
>57,i,CC(C)C(C(=O)NC1CCCCC1)N(CC1CCCO1)C(=O)CNS(=O)(=O)c1ccc(F)cc1 (configuration not stated)
>57,i,CC(C)CN1C(=O)c2ccc(C(=O)Nc3ccncc3)cc2C1=O
>57,i,CCOc1cc(C(=O)Nc2ccc(N3CCN(S(C)(=O)=O)CC3)cc2)cc(OCC)c1OCC
>57,i,Cc1ccccc1OCC(=O)N(Cc1cccs1)C1CCS(=O)(=O)C1 (configuration not stated)
>57,i,CC(C)C(=O)N(Cc1cc(=O)[nH]c2ccccc12)c1ccccc1
>57,i,c1coc(-c2nc(-c3ccco3)c(-c3ccco3)nc2-c2ccco2)c1
>57,i,CC(C)NC(=O)CSc1nnc(-c2ccc(C(C)(C)C)cc2)n1C
.,i,COc1ccc(N2CCN(S(=O)(=O)c3ccc(OC)cc3)CC2)cc1
>57,i,O=C(O)c1[nH]c2ccc(Cl)cc2c1CC(=O)N1CCN(c2ccccc2)CC1
>11.4,.,COc1ccccc1-c1nnc2sc(COc3ccccc3)nn12
>57,i,CCn1c(SCC(=O)O)nnc1-c1ccccc1
>57,i,CCCn1c2c(c(O)c(C(=O)Nc3ccccn3)c1=O)CCCC2
>57,i,CC(=O)N(Cc1cc(=O)[nH]c2ccccc12)c1ccc(C)cc1
.,i,O=C(O)c1ccccc1C(=O)NCc1ccccc1
.,i,O=C1COC(c2ccccc2O)=NN1CCCN1CCCC1
>57,i,COc1cccc(C(=O)CSc2nnc(-c3cccs3)o2)c1
>57,i,C=CCOc1nc(N2CCCC2)nc(N2CCCC2)n1
>57,i,COc1ccc(CCNC(=O)NC2CCCCC2)cc1OC
>57,i,CC1(C)CC(=O)C2=C(C1)OC(N)=C(C#N)C2CCc1ccccc1 (configuration not stated)
>57,i,CC(=O)c1c(C)[nH]c(C(=O)OCC(=O)NCCc2ccc(F)cc2)c1C

Five entries from above, with tabs.
molecule	Bst PK mod	YjeE inh
CCCn1c2c(c(O)c(C(=O)Nc3ccccn3)c1=O)CCCC2	>57	i
CC(=O)N(Cc1cc(=O)[nH]c2ccccc12)c1ccc(C)cc1	>57	i
O=C(O)c1ccccc1C(=O)NCc1ccccc1	.	i
O=C1COC(c2ccccc2O)=NN1CCCN1CCCC1	.	i
COc1cccc(C(=O)CSc2nnc(-c3cccs3)o2)c1	>57	i

The main list resumes with the 5 entries that preceded the break.
Bst PK mod,YjeE inh,SMILES
>57,i,COc1cccc(C(=O)CSc2nnc(-c3cccs3)o2)c1
>57,i,C=CCOc1nc(N2CCCC2)nc(N2CCCC2)n1
>57,i,COc1ccc(CCNC(=O)NC2CCCCC2)cc1OC
>57,i,CC1(C)CC(=O)C2=C(C1)OC(N)=C(C#N)C2CCc1ccccc1 (configuration not stated)
>57,i,CC(=O)c1c(C)[nH]c(C(=O)OCC(=O)NCCc2ccc(F)cc2)c1C
>57,i,CCCc1[nH]nc2c1C(Cc1ccccc1)C(C#N)=C(N)O2 (configuration not stated)
>57,i,O=C(Nc1ccc2c(c1)oc1ccccc12)c1ccc2c(c1)OCO2
>57,i,CC(=O)c1c(C)[nH]c(C(=O)N2CCc3ccccc3C2)c1C
.,i,CCCC[C@H](CC)CN1CN(C[C@@H](CC)CCCC)CC(C)(N)C1
>57,i,CCN(CC)S(=O)(=O)c1ccc2c(c1)c(=O)c(C(=O)N1CCc3ccccc3C1)cn2C
2.79*,i,COc1cc(-c2nnc3sc(-c4cccs4)nn23)cc(OC)c1OC
.,i,CN1CCN(c2nc3c(c(=O)n(C)c(=O)n3C)n2CCSc2nc3ccccc3s2)CC1
>57,i,COc1ccc(C(=O)CSc2nnc(CNC(=O)c3ccc(OC)cc3)n2C)cc1
.,i,O=C(O)c1cccc(OCCO)c1
>57,i,CC(C)CCOc1cccc(OCC(=O)NC2CCS(=O)(=O)C2)c1 (configuration not stated)
.,i,CC(C)Cc1cc(C(=O)Nc2cc(Br)ccc2O)no1
>57,i,O=C(NCc1cccnc1)c1ccc(COc2ccc3c(c2)CCC3)o1
>57,i,CCOC(=O)c1c(C)[nH]c(C(=O)CSc2nc3ccccc3o2)c1C
10.6*,i,Cc1cc(C)c(C)c(S(=O)(=O)NCc2ccco2)c1C
.,i,COc1ccc(C(=O)c2coc3ccc(O)c(CN4CCCC4)c23)cc1
>57,i,Nc1nc(NCc2cccs2)nn1-c1ccccc1
>25.6,.,CC1(C)Cc2c(sc3c2C2=NCCN2C=N3)CS1
.,i,O=C(Nc1cccc(F)c1)C1CC(=O)N(c2ccc(Cl)cc2)C1 (configuration not stated)
>57,i,COc1ccc(Cl)cc1S(=O)(=O)N1CCN(Cc2ccc3c(c2)OCO3)CC1
>25.6,.,CCN(CC)Cc1c(O)ccc2c(C)c(CC(=O)OC)c(=O)oc12

Exported with bars between the fields: entries from further up.
smiles | Bst PK mod | YjeE inh
CCCn1c2c(c(O)c(C(=O)Nc3ccccn3)c1=O)CCCC2 | >57 | i
CC(=O)N(Cc1cc(=O)[nH]c2ccccc12)c1ccc(C)cc1 | >57 | i

Continued:
Bst PK mod,YjeE inh,SMILES
.,i,C=C1CSc2nc(=O)c3c4c(sc3n21)CCC4
.,i,CCCCC1CCC(c2nc(-c3cccnc3)no2)CC1 (configuration not stated)
.,i,Cc1ccc(Nc2nc(C(=O)NCc3ccco3)cs2)cc1
>57,i,Cn1c(SCc2nnc3n2CCCCC3)nc2ccccc21
>57,i,CC(C)CC(NC(=O)OC(C)(C)C)C(=O)NC(C(=O)NC(C)C(N)=O)C(C)C (configuration not stated)
.,i,c1ccc2cc(C3=NCCN3)ncc2c1
>57,i,O=S(=O)(NC1CCCC1)c1ccccc1Cl
.,i,CCOc1ccc(-c2nc(C#N)c(N3CCOCC3)o2)cc1
>57,i,COC(=O)C1=C(C)NC(=O)CC1c1cccc(OC)c1OC (configuration not stated)
.,i,COc1cc(NS(=O)(=O)c2ccc(NC(=O)COc3ccc(C)cc3)cc2)nc(OC)n1
.,i,CCSc1ncnc2c(C#N)c3n(c12)CCCCC3
>57,i,COc1ccc(CNC(=O)Cn2nc(C(F)(F)F)c3c2CCC3)cc1
?,i,CN(CC(=O)NCc1cccs1)S(=O)(=O)c1cccc2nsnc12
.,i,Cc1ccc(C)c([C@@H]2NC(=O)c3ccccc3N2)c1
7.11*,i,COc1cc(NC(=O)c2ccc3c(c2)OCO3)ccc1NC(=O)C(C)C
>57,i,O=C(NC1CC2CCCC(C1)N2Cc1ccco1)NC12CC3CC(CC(C3)C1)C2 (configuration not stated)
.,i,Nc1c(C(=O)NCc2ccccc2)nnn1Cc1cccc(Cl)c1
.,i,O=c1c2ccccc2oc2nc3n(c(=O)c12)CCCS3
.,i,CCOC(=O)C(Oc1ccc(=O)n(-c2ccccc2)n1)C(C)=O (configuration not stated)
>57,i,CCOC(=O)c1nnn(-c2nonc2N)c1CN1CCc2ccccc2C1

Carrying on:
Bst PK mod,YjeE inh,SMILES
>57,i,CC1CCN(C(=O)c2ccc(NS(C)(=O)=O)cc2)CC1
>57,i,Cc1cc(C(=O)Nc2cccnc2)cs1
>57,i,COC(=O)c1ccccc1S(=O)(=O)N(Cc1ccco1)Cc1cc2cc(OC)ccc2[nH]c1=O
>57,i,CC1CCCC(NC(=O)c2ccc3c(=O)n(CC4CCCO4)c(=O)[nH]c3c2)C1C (configuration not stated)
.,i,CCN(CC)C(=O)c1sc(N)c(C#N)c1C
>57,i,CC(=O)c1ccc(NC(=O)CCNS(=O)(=O)c2cccc3nonc23)cc1
>25.6,.,Cc1c(NC(=O)C(CC(=O)O)NCc2ccco2)c(=O)n(-c2ccccc2)n1C (configuration not stated)
.,i,C=CCOC(=O)C1=C(C)NC(=O)NC1/C=C/c1ccccc1 (configuration not stated)
.,i,CC(=O)N=c1sc2cc(C)ccc2n1C
.,i,COc1cc([C@H](O)CO)ccc1O
.,i,COc1cccc2c1[C@H](CO)N1[C@H](C#N)[C@@H]3C[C@H](C(=O)O)[C@@H]([C@@H]1C2)N3C
>57,i,O=C(c1cc2ccccn2n1)N1CCN(c2cccc(C(F)(F)F)c2)CC1
>57,i,CCOc1ccc(NC(=O)CN2CCN(CC(=O)Nc3ccc(C(=O)OC)cc3)CC2)cc1
.,i,CCCCCCCCC1CO1 (configuration not stated)
.,i,Cc1cc(Nc2cccc(C)c2C)n2ncnc2n1
>57,i,Cc1ccc(CCNC(=O)C2CCN(S(=O)(=O)N3CCCC3)CC2)cc1
.,i,CCn1cc(C2=NC(c3ccccc3)CO2)c2ccccc21 (configuration not stated)
>25.6,.,CCOC(=O)CSC1=C(C#N)C(c2ccc3c(c2)OCO3)CC(=O)N1 (configuration not stated)
>57,i,COCCN1CN=C(Nc2nc3ccccc3s2)NC1
>57,i,CCn1c(SCC(=O)c2ccccc2)nnc1-c1ccoc1C

(list continues)
Bst PK mod,YjeE inh,SMILES
>57,i,COc1ccccc1C1N(c2ccc(F)cc2)C(=O)C2CCCN21 (configuration not stated)
.,i,CC1=C(C(N)=O)C(c2cccc(O)c2)n2nc(CCCO)nc2N1 (configuration not stated)
>57,i,CCCN1Cc2cccc(C(=O)NCc3cccs3)c2C1=O
.,i,Cc1c(N)cccc1Cl
.,i,C=CCNc1nc(-c2ccc(OC)cc2OC)cs1
>57,i,COc1ccc(CC(C(=O)Nc2cc(C)ccc2C)/C(N)=N/O)cc1 (configuration not stated)
.,i,COc1cc(COc2cc(N)c(Cl)cc2C(=O)CCC2CCN(CCNS(C)(=O)=O)CC2)cc(OC)c1
.,i,CCc1nc2sc(C)c(C)c2c(=O)n1CCO
i,i,CCCN1CCN(CCCNC(=O)C2CCN(c3nnc(-n4cccc4)s3)CC2)CC1
>25.6,.,O=C(O)c1ccc(OCCn2ccnc2)cc1
>57,i,Cc1cccc(NC(=O)c2ccccn2)c1C
i,i,Cc1ccc(S(=O)(=O)Nc2ccc3nc(-c4cccn4C)[nH]c3c2)cc1
>57,i,C=CCN1C(=O)N(/C=C/C)c2cccc3cccc1c23
.,i,O=c1cnc2cnc(Oc3cccc(Cl)c3)nc2n1C1CC1
>57,i,CCOC(=O)c1[nH]c2ccc(C)cc2c1N=C(C)N(C)C
>57,i,FC(F)(F)C(Oc1nc(NC2CCCCC2)nc(N2CCOCC2)n1)C(F)(F)F
>57,i,O=C1C2C3C=CC(C3)C2C(=O)N1Cc1ccccc1 (configuration not stated)
>57,i,CCOC(=O)c1c(C)[nH]c(C(=O)CN2CCOCC2)c1C
.,i,Cc1cc(NC(=O)c2cc(CC(C)C)on2)n(-c2ccccc2)n1
i,i,COc1ccc(CC(=O)Nc2cccc(-c3nnc(-c4ccc(C)cc4)o3)c2)cc1OC

Continuation.
Bst PK mod,YjeE inh,SMILES
.,i,O=c1cnc2cnc(N3CCNCC3)nc2n1Cc1cccs1
>57,i,O=C(NCc1ccco1)c1cccs1
.,i,CN=C(NC#N)NCCSCc1csc(N=C(N)N)n1
i,i,Cc1nn(CC(=O)Nc2ccc3c(c2)nc(CN2CCCC2)n3C)c(=O)c2ccccc12
.,i,CCCc1cc(C(=O)N(C2CCCCC2)C2CCCCC2)no1
.,i,Cc1n[nH]c(C)c1S(=O)(=O)N(CC(=O)Nc1ccc2c(c1)OCCO2)c1ccc(C(C)C)cc1
.,i,COc1ccc(NC(=O)N2CC3(CCNCC3)C2)cc1
.,i,Cc1ccc(C(=O)Nc2ccccc2C(=O)NC(CC(=O)O)C(=O)O)cc1 (configuration not stated)
>57,i,COc1ccc(S(=O)(=O)N2CCOCC2)cc1C(=O)Nc1nc2ccccc2s1
.,i,O=C(Nc1cccc2c1CCCC2)c1ccco1
>57,i,Cn1c(Oc2ccccc2NCc2cc(Br)ccc2O)cc(=O)n(C)c1=O
>57,i,O=C(CN(c1ccccc1)S(=O)(=O)c1ccc(F)cc1)N1CCCCCC1
>57,i,C=CCSc1nc(N)c(C#N)c(-c2ccc(C)cc2)c1C#N
>57,i,COc1ccc(-c2noc(CCC(=O)NCCN3CCN(c4ccccc4F)CC3)n2)cc1
>57,i,CC(C)(C)C1CCC2(CC1)NC(CO)(CO)CO2 (configuration not stated)
>57,i,Cn1c(C(F)(F)F)nc2c(=O)oc3ccccc3c21
.,i,C=C(C)Cn1c(C2CC(=O)N(c3ccccc3F)C2)nc2ccccc21 (configuration not stated)
.,i,CCN1C(=O)c2ccccc2S(=O)c2ccc(C(=O)NCc3ccccn3)cc21 (configuration not stated)
.,i,CCc1ccc(NC(=O)c2cc(CC(C)C)on2)cc1
.,i,O=C1c2ccccc2C(O)N1Cc1ccc2c(c1)OCO2 (configuration not stated)

Other structures:
Bst PK mod,YjeE inh,SMILES
>57,i,CCOC(=O)c1cc2occc2n1CC(=O)NC1CCC(C)CC1 (configuration not stated)
.,i,Cc1ccc(S(=O)(=O)N[C@H](CO)C(=O)O)cc1
>57,i,CCc1ccccc1Nc1nc(N)nc(CSCC(=O)c2cc(C)n(C)c2C)n1
>57,i,CN1CCN(S(=O)(=O)c2ccc(N3CCN(S(=O)(=O)/C=C/c4ccccc4)CC3)nc2)CC1
.,i,COC(=O)c1cccc(NC(=O)c2cc3sccc3n2C)c1
>57,i,COc1ccc2c(c1)c(C(O)CN1CCN(Cc3ccc4c(c3)OCO4)CC1)c(C)n2C (configuration not stated)
>57,i,c1cnc(NCCNc2ncccn2)nc1
>57,i,CCc1ccccc1N(CC)C(=O)CCc1nc(-c2ccc(C)cc2)no1
>57,i,CCn1c(SCC(=O)NCCc2ccccc2)nnc1-c1ccco1
.,i,Cc1c(C)c2c(c(C)c1O)CC[C@@](C)(CCC[C@@H](C)CCC[C@@H](C)CCCC(C)C)O2
>25.6,.,O=C(NC1CCCCC1)Nn1c(-c2ccccc2)nc2ccccc2c1=O

This is a subset; count on the stated rates, not on these rows.
